Bfl-1 A1 inh: inhibitors of the anti-apoptotic protein A1, read as caspase activation. 330,000 tested, 0.066% active. caspase activation, % (no concentration beside the values). AID 2462. MEF A1-2A-BIM cells, Caspase-Glo 3/7 luminescence, 3 h; percent of clofoctol response, vehicle zero;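 active means over half of replicate activation scores above 10%, or exactly half above 10 with the replicate mean above 10; inconclusive means replicate mean below 10 yet half the replicates above 10; inactive means over half of replicates below 10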;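 further: wells of about 30 µL received 50 nL stock; many hits fall short of the cut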
MLL AF4-AF9 inh: inhibitors of human MLL-AF4/AF9 interaction. P42568. AlphaScreen, biotin-AF4 peptide binding to FLAG-AF9. inhibition, % at 10 µM. 350,000 tested, 0.47% active;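 active means every replicate reaching a set inhibition limit, whatever the replicate mean, cut at about 25% in these data; inconclusive means mean inhibition reaches that limit but some replicates miss it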;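 further: 0% = plate neutral control median and 100% = total signal loss; the record names both 10 and 1 µM as test concentration; the first replicate is given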
Target sequence (P42568 whole entry, looked up): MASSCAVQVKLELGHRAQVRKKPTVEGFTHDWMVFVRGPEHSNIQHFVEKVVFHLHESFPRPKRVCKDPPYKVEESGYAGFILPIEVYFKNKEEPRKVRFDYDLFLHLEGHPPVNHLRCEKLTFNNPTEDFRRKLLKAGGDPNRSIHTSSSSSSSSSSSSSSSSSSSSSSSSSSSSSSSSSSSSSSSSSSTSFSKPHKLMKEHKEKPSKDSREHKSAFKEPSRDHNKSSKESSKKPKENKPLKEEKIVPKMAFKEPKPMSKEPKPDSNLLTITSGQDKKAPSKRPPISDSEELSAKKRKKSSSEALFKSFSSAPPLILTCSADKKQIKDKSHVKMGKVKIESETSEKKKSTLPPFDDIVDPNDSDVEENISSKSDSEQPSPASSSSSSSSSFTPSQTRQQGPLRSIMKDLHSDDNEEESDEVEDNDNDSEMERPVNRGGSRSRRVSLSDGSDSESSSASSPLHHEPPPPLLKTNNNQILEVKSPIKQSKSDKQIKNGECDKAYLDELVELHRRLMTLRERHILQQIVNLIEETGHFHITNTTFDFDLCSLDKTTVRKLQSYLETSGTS
RanGTP-Imp inh: inhibitors of RanGTP-importin-beta interaction, primary screen, biochemical, FRET, CFP-Ran, YFP-importin-beta, homogeneous | inhibition, % (concentration not given with the values) | cell-free CFP-Ran/YFP-importin-beta FRET ratio | 300,000 tested, 1.1% active | AID 2216;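 active means most replicates above 15%; inconclusive means exactly half above 15%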;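 further: 0% = DMSO wells and 100% = Ran loaded with GDP instead of GTP; wells of about 40 µL received 100 nL stock; the first replicate is given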
Beta cell apopt: blocks beta cell apoptosis; INS-1E cytokine-induced death, ATP luminescence, 48 h; percent of positive-control rescue, neutral wells zero; protection from apoptosis, % (no concentration beside the values); 300,000 tested, 0.8% active; AID 435005;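 active means all replicates at 75% or more, or half of them and the mean; inconclusive means half reach 75% but not the mean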;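 further: 0% = cytokine-treated negative control wells and 100% = positive control rescue; higher means more ATP so stronger rescue from cytokine killing; wells of about 40 µL received 100 nL stock; the first replicate is given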
Vif A3G: HIV-1 Vif–A3G interaction blockers – biochemical, TR-FRET, GST-Vif 1-94, biotin-A3G peptide, dose response retest, primary screen (AID 1117319). 260,000 tested, 0.57% active. TR-FRET GST-Vif / biotin-A3G peptide binding; higher % means a stronger effect; test concentration not given here; strong numbers were not always called active. inhibition, %; hits with a dose series show IC50 in µM;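 active means above the screen mean plus three standard deviations and confirmed in dose response; inconclusive means results disagree or hit not tested in dose response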;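 further: Vif residues 1-94 fused to GST binding biotinylated APOBEC3G peptide 110-148; 0% = full assay without inhibitor and 100% = GST in place of GST-Vif; retest series ran down from 100 µM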
Calb FLC: affects C. albicans growth with fluconazole; C. albicans CaCi-2 (fluconazole-resistant clinical isolate) + fluconazole, Alamar Blue growth, 48 h; growth inhibition, % (no concentration beside the values); 300,000 tested, 0.57% active; AID 1979;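 active means most replicates above 75%; inconclusive means exactly half above 75%; inactive means most below 75%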;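 further: all wells also contain fluconazole at 8 µg/ml as a sub-toxic cotreatment; 0% = median of DMSO wells and 100% = median of geldanamycin control wells; wells of about 8 µL received 7.5 nL stock; the first replicate is given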
T cruzi inh: T. cruzi replication inhibition; T. cruzi beta-gal in NIH3T3, luminescence, 90 h; inhibition, % (no concentration beside the values); 300,000 tested, 1.4% active; AID 1885;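 active means mean inhibition across valid replicates above about 55%, limit read from the data; inconclusive means mean below that limit but half or more replicates reach it; inactive means mean below it, under half of replicates reach it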;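 further: signal also drops with host cell toxicity which is not excluded here; 0% = plate median of DMSO wells and 100% = zero luminescence signal; higher percent means less beta-gal luminescence so fewer parasites; stock transfer was 50 nL into about 50 µL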
rRNA inh HTS: inhibitors of bacterial rRNA selective over humanized ribosomes; GFP signal change (wild-type ribosome), % (no concentration beside the values); 350,000 tested, 1.6% active; AID 720706; E. coli WT GFP vs humanized-ribosome RFP mutants, fluorescence, 24 h; active compounds read low; DMSO median 0, no signal -100;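 active means significant combined selectivity score with lowered wild-type GFP, culture density cut under 30%, mutant RFP and density less affected; inactive means any of these conditions unmet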; further: one replicate is shown; some compounds called inactive have numbers as strong as hits
rRNA inh HTS OD600: further read-out of rRNA inh HTS, marked with its call; OD600 change, %; measured here: OD600 growth;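 optical density of the mix in the first replicate; 0 = DMSO median and -100 = no signal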
rRNA inh HTS RFP: recorded beside rRNA inh HTS, whose call it bears; RFP signal change, %; measured here: RFP humanized mutant strains;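 first replicate; 0 = DMSO median and -100 = no signal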
* marks the source's active call; other numbers are inactive results; ? = inconclusive; . = no result given; & = joins results of further samples.

SMILES	Bfl-1 A1 inh	MLL AF4-AF9 inh	RanGTP-Imp inh	Beta cell apopt	Vif A3G	Calb FLC	T cruzi inh	rRNA inh HTS	rRNA inh HTS OD600	rRNA inh HTS RFP
CCCCn1c(NC(=O)c2ccco2)c(S(=O)(=O)c2ccc(C)cc2)c2nc3ccccc3nc21	.	-3.8	49*	.	21%	48	12	-11	-9	1.8
O=C1NN=C(c2ccc(Cl)cc2)CC1c1c[nH]c2ccccc12 (centres undefined)	0.3	4.7	0.2	-6	-8%	7	14	-59	-78	-31
Cn1c(=O)[nH]c(=O)c2c1nc(N1CCCCC1)n2CC(O)COc1ccccc1 (centres undefined)	-0.4	1.1	0.9	-3	-4%	12	-2	16	16	2.5
Cc1ccc(CNS(=O)(=O)c2c(C(=O)N3CCCCCC3)c(C)n(C)c2C)cc1	0.3	7.1	1.9	-3	.	-1	7	13	5	0.5
COc1ccc(N(Cc2nnc3n2CCCCC3)C(=O)Nc2ccccc2)cc1	1.0	-2.2	4.8	-3	16%	-39	-1	10	11	0.6
COc1ccc(NC(=O)CCC(=O)N(Cc2ccc(OC)c(OC)c2)c2nccs2)cc1	0.0	.	1.7	-15	.	-2	-5	.	.	.
C=CC(=O)NC(C)(C)Cc1ccccc1	0.7	.	-1.2	-2	6%	9	5	.	.	.
CC1CCCN(c2nc3c(c(=O)n(C)c(=O)n3C)n2Cc2ccccc2)C1 (centres undefined)	0.4	.	-0.3	7	.	13	21	.	.	.
CCCn1c(C(C)NC(=O)c2ccccc2)n[nH]c1=S (centres undefined)	0.6	-2.9	2.1	-6	.	2	13	3	8	2.7
O=C(NCCCN1CCOCC1)c1ccc(S(=O)(=O)N2CCOCC2)cc1	0.5	.	3.2	-3	0%	-10	1	.	.	.
CCc1ccc(OCC(=O)N/N=C(\C)c2ccc(-n3ccnc3)cc2)cc1	2.0	0.3	-3.0	2	.	3	0	.	.	.
Cc1ccc(NC(=O)COC(=O)CCc2c[nH]c3ccccc23)cc1[N+](=O)[O-]	-0.4	-1.8	3.5	-3	-5%	5	-17	.	.	.
CCOc1ncccc1C(=O)NCc1ccccc1F	-0.3	-0.7	-1.9	0	1%	-17	0	4	-15	-1.3
CCN1CCN(c2ccc(S(=O)(=O)N3CCCCC3)cc2NC(=O)CC(NC(C)=O)c2ccccc2)CC1 (centres undefined)	0.4	4.5	.	-5	0%	-9	-5	6	17	-1.5
CCC(=O)Nc1ccc(C(=O)CSc2nnc(CNc3ccc(Cl)cc3)o2)cc1OC	0.4	.	-1.7	16	0%&-4%	0	-8	.	.	.
COc1ccc(CNC(=O)c2ccc(Cn3cc(Cl)cn3)o2)cc1	1.1	0.4	5.3	.	.	-17	-7	5	9	-1.1
Cc1coc2cc3oc(=O)c(CCC(=O)NCCN4CCOCC4)c(C)c3cc12	-0.2	-2.5	5.3	-3	.	-16	-16	-12	-8	3.5
C/C(=N/NC(=O)c1ccc(Cl)s1)c1cccnc1	-0.5	-1.5	-3.8	5	.	-15	-13	1	-4	-0.5
O=C(COc1ccc(Cl)cc1)N1CCN(Cc2ccc3c(c2)OCO3)CC1	0.1&1.0	-2.3&0.2	3.0	-1	.	-53	0	-4	-19	-0.1
Cc1cccc(C(=O)Nc2ccnc(-c3ccncc3)n2)c1	0.4	1.5	-4.7	-3	-3%	24	23	18	16	-2.0
COC(=O)N1CCN(CCc2ccccc2)CC1	0.5	-1.0	-2.4	6	2%	-7	13	13	8	0.8
COc1ccc(NC(=O)Nc2ccc3c(c2)CC(=O)N([C@H](C)CO)C[C@@H](C)[C@H](CN(C)C(=O)Nc2ccccc2)O3)cc1	0.8	-0.9	.	-3	.	.	.	4&13	10&13	-0.6&-0.2
Cc1ccc(CCNC(=O)C2CCN(S(=O)(=O)N3CCCCC3)CC2)cc1	1.1	-6.3	2.9	1	.	2	4	.	.	.
COc1ccc([C@@H]2[C@@H]3C(=O)N(C(C)(C)C)C(=O)[C@@H]3[C@]3(Cc4ccccc4)C(=O)N(c4cccc(F)c4)C(=O)N23)cc1	0.9	1.1	7.9	4	.	7	-1	4	-3	-3.4
CSCc1c(C(=O)Nc2ccc(N3CCOCC3)cc2)oc2ccccc12	-0.2	.	-3.7	-2	7%	26	13	.	.	.
(next part)
SMILES	Bfl-1 A1 inh	MLL AF4-AF9 inh	RanGTP-Imp inh	Beta cell apopt	Vif A3G	Calb FLC	T cruzi inh	rRNA inh HTS	rRNA inh HTS OD600	rRNA inh HTS RFP
Cc1nn(Cc2ccccc2)c(C)c1NC(=O)CSc1nc2c(c(C(F)(F)F)n1)CCc1ccccc1-2	-0.3	.	1.3	4	.	13	38	.	.	.
C#CCOc1ccc(C2C3=C(CC(C)(C)CC3=O)N(CC(=O)O)C3=C2C(=O)CC(C)(C)C3)cc1	1.6	-0.1	162*	-1	-5%	3	-5	-1	2	0.4
C=CCNc1nc(Cl)nc(Nc2ccc(OCC)cc2)n1	0.6	-0.1	-1.3	0	.	21	4	9	8	-0.5
CCOC(=O)CSc1nc(-c2ccccc2)nc2ccc(C)cc12	-0.3	-0.2	-1.3	0	2%	-3	9	20	4	0.2
CCN(CC)C(=O)CSc1nnc(-c2ccccn2)n1-c1ccccc1OC	0.1	3.4	-1.2	-5	-5%	-9	2	4	-5	-1.5
O=C1NC2(CCCCCC2)Oc2ccccc21	0.2	.	1.8	-2	26%	-30	-16	.	.	.
COC(=O)CCC(=O)N1CCCC(N2CCN(c3cccc(C(F)(F)F)c3)CC2)C1 (centres undefined)	-1.2	2.4	-3.2	.	.	-3	-11	0	0	1.1
O=C(Nc1ccnn1C1CCN(C2CCC2)CC1)c1ccccc1	-0.6	-0.6	4.4	2	-3%	-4	-1	7	6	-0.8
CCNC(=S)NS(=O)(=O)c1ccc(Cl)cc1	0.5	.	1.2	1	4%	-6	-5	.	.	.
COc1ccc(NC(=S)NCCc2ccc(Cl)cc2)c(OC)c1	0.8	.	5.9	4	-3%	-5	6	.	.	.
O=C(COC(=O)c1ccco1)c1ccc(S(=O)(=O)N2CCCCC2)cc1	-0.3	-0.2	2.2	-5	.	-16	-15	0	11	0.6
COCCCNC(=O)c1ccc(Cn2c(=O)c3ccccc3n(Cc3cc(C)ccc3C)c2=O)cc1	-0.1	.	2.9	-1	-3%	-8	23	.	.	.
CCOc1ncccc1C(=O)OCC(=O)Nc1cc(C)ccc1C	0.8	.	5.3	3	2%	25	-11	.	.	.
O=C(c1cc(COc2ccc3ncccc3c2)on1)N1CCCCCC1	-0.3	-2.5	0.5	91*	?	-5	31	.	.	.
Cc1nn(C)c(N)c1C(O)(c1nccn1C)C(F)(F)F (centres undefined)	1.1	.	-0.8	-10	-1%	-3	0	.	.	.
O=C(NNC(=S)NC(=O)c1cccnc1)c1ccc(Cl)cc1	-0.1	.	1.0	-1	?	17	-11	.	.	.
CCCC(C(=O)NC1CCCC1)N(CC1CCCO1)C(=O)c1snc(C(N)=O)c1N (centres undefined)	1.1	.	-0.1	2	1%	-11	2	.	.	.
O=C(Nc1sccc1C(=O)N1CCOCC1)c1cccnc1	-0.3	8.0	-1.4	-11	5%	-6	-7	10	-2	4.8
COc1ccc(CCC(=O)OCC(=O)c2c(N)n(CC(C)C)c(=O)n(C)c2=O)cc1	-2.0	0.6	-3.0	.	.	1	13	-6	-24	0.2
O=C1CC2(CCN(C(=O)c3ccccc3[N+](=O)[O-])CC2)Oc2ccccc21	1.3	4.3	5.3	.	6%	-4	-3	5	3	0.4
CCCc1c(C)[nH]c2ccc(NC(C)=O)cc2c1=O	0.2	.	-1.6	-4	-5%	7	-3	.	.	.
Cc1ccc2[nH]c(=O)cc(C(=O)OCC(=O)c3ccccc3)c2c1	1.2	.	4.9	-12	.	-9	-10	.	.	.
COc1ccc(CCN(Cc2ccccn2)C(=S)Nc2ccccc2Cl)cc1OC	0.4	6.5	2.9	2	5%	0	-20	-3	-1	-4.2
Cc1cc(N(CC(=O)NC(C)C)S(C)(=O)=O)ccc1Br	0.1	-3.7	6.5	-3	.	4	12	.	.	.
COCCN1C(=O)C(O)=C(C(C)=O)C1c1ccc(F)cc1 (centres undefined)	0.0	.	4.2	-6	0%	30	-10	.	.	.
Other structures:
SMILES	Bfl-1 A1 inh	MLL AF4-AF9 inh	RanGTP-Imp inh	Beta cell apopt	Vif A3G	Calb FLC	T cruzi inh	rRNA inh HTS	rRNA inh HTS OD600	rRNA inh HTS RFP
O=C(NCc1ccccc1Cl)C1CCN(S(=O)(=O)c2cccs2)CC1	0.0	-1.2	1.8	-1	.	-1	-1	-2	-18	-0.2
O=C(CN(C(=O)CSc1nc2ccccc2o1)c1ccccc1F)NC1CCCCC1	1.2	-1.9	.	6	.	15	8	14	10	-0.1
COc1ccc(-c2nnc3n(CCc4ccccc4)c(=O)c4ccccc4n23)c(OC)c1	0.4	.	1.4	6	.	9	20	.	.	.
CCCN1C2CCCC1CC(NC(=O)c1ccccc1OCC)C2 (centres undefined)	0.4	.	-0.9	.	2%	-11	-9	.	.	.
O=C(CCn1nc(-c2ccccc2)c2ccccc2c1=O)NCC1CCCO1 (centres undefined)	0.6	.	3.9	-1	-7%	-4	-2	.	.	.
COc1cc(C(=O)OC(C)C(=O)NC2CCCCC2C)c([N+](=O)[O-])cc1OC (centres undefined)	1.2	-0.3	4.7	-4	4%	28	-5	5	10	-1.3
COc1ccccc1OCc1ccc(C(=O)NC(C)c2ccccc2)o1 (centres undefined)	0.5	0.4	3.0	.	9%	-12	-4	-6	-2	2.2
CN1CCN(CCC(=O)N/N=C/c2cc3c(cc2[N+](=O)[O-])OCO3)CC1	0.2	0.9	1.0	-24	-1%	0	11	1	2	-1.0
O=C(Nc1nncs1)C12CC3CC(CC(C3)C1)C2	-0.4	-5.1	-0.9	-6	-1%	-11	-11	2	4	-0.4

In the list so far, 2 have two or more sulfur atoms.
SMILES	Bfl-1 A1 inh	MLL AF4-AF9 inh	RanGTP-Imp inh	Beta cell apopt	Vif A3G	Calb FLC	T cruzi inh	rRNA inh HTS	rRNA inh HTS OD600	rRNA inh HTS RFP
CCNC(=S)NS(=O)(=O)c1ccc(Cl)cc1	0.5	.	1.2	1	4%	-6	-5	.	.	.
O=C(NCc1ccccc1Cl)C1CCN(S(=O)(=O)c2cccs2)CC1	0.0	-1.2	1.8	-1	.	-1	-1	-2	-18	-0.2

Compound activity: PubChem BioAssay, several laboratories

An excerpt; the hit share may differ from the screen's.
